Compound activity deposited in PubChem BioAssay by National Center for Advancing Translational Sciences (NCATS).
LT uptake inh = blocks cellular internalization of anthrax lethal toxin; Cells, anthrax lethal toxin internalization, FRET ratio (460/530); Potency, µM (highest dose often 40 µM), inactives show top-dose activity change, negative = inhibition, usual class: inhibitors; 70,000 tested, 0.67% active; AID 912; active = well fitted falling ratio curve with the 530 nm signal flat; inconclusive = other ratio curves, or a change in one channel alone; inactive = flat curves in the ratio and both channels; the % refers to the ratio; also: % is scaled to controls: 0 for no effect and ±100 for the full control effect; nearly all actives have a fitted effect of over 50% in size; tested in ME-180 cells; beta-lactamase reporter
Prx2 Sm inh = Schistosoma mansoni Prx2 inhibition; S. mansoni Prx2 activity coupled to TGR/GSH (TGR is thioredoxin glutathione reductase), NADPH fluorescence loss, qHTS; some inactives read as strong as hits; Potency, µM; 65,000 tested, 0.07% active; active means full or partial inhibition curve with a strong effect at the top dose; inconclusive means weaker partial or single-point curve; inactive means no accepted curve; also: series up to 57 µM; many of its hits are not listed in these tables
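Prx2 activity was followed as the loss of NADPH fluorescence (ex 365/em 450 nm), read every 30 sec for 8 min after H2O2 start. The enzyme mix (50 nM Prx2, 25 nM TGR, GSH, NADPH; pH 7.4 phosphate buffer) was incubated with compound for 15 min at room temperature first.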
An asterisk follows results filed as active; ? = inconclusive; · = no result given; [ ] = another dose, or the depositor's remark. Potency is read from the fitted curve at half-maximal effect. Only part of the results is shown. The share of hits here may be higher or lower than overall.

molecule	LT uptake inh	Prx2 Sm inh
N#Cc1c(N)c(C(=O)c2ccccc2)n2c1CCC2	-5%	>57
CCc1nnc(NC(=O)c2ccc(S(=O)(=O)N3CCCCC3C)cc2)s1 (stereo not given)	-1%	>57
CCOc1ccc(NC(=O)CN2C(=O)C3CC=CCC3C2=O)cc1 (stereo not given)	-5%	>57
CCOC(=O)C1=CSC2=NS(=O)(=O)CCN12	-2%	>57
Cc1ccc(CN2C(=O)NC(=O)C3(Cc4c(nc5ccccn5c4=O)N4CCCCCC43)C2=O)cc1 (stereo not given)	?	>57
COC(=O)CSc1nc2cc3c(cc2cc1C)OCCO3	-1%	>57
Cc1cc2cc(C(c3nnnn3Cc3ccco3)N3CCc4ccccc43)c(=O)[nH]c2cc1C (stereo not given)	?	>57
CC1CCCN(C(=O)Cn2c(=O)oc3ccccc32)C1 (stereo not given)	-21%	>57
Oc1ccc(C(=S)N2CCCCC2)cc1Cl	1%	>57
CCC(C)NC(=O)Cn1cc2c(n1)CCC(C)C2 (stereo not given)	-3%	>57
O=c1cc(CN2CCN(c3ccc(F)cc3)CC2)nc2sccn12	?	>57
COc1ccc(Nc2nc(C)cc(C)c2C(N)=O)c(OC)c1	0%	>57
CCOC(=O)N1CCN(S(=O)(=O)c2cc(OCC(N)=O)c(C)cc2Cl)CC1	17%	>57
CC1=CC2=NC(=O)CC(C)(C(=O)N(CC(=O)NC(C)(C)C)C3CCCC3)N2C=C1 (stereo not given)	4%	>57
Cc1nc(NC(=O)CSc2nnnn2Cc2ccccc2)sc1C	?	>57
O=C(Cc1ccc(-n2cnnn2)cc1)NC12CC3CC(CC(C3)C1)C2	-16%	>57
Cc1cc(/C=N/n2cnnc2)c(C)n1-c1ccc(C(=O)O)cc1	-13%	·
O=C(CN1CCOCC1)N(c1ccccc1)c1ccc2ccccc2c1	-4%	>57
O=C(CC(Nc1ccc(F)cc1)C(=O)O)c1ccccc1 (stereo not given)	-18%	>57
CS[C@]12C(=O)C[C@]3(C)[C@@H](CC[C@@]3(O)C(=O)CO)[C@@H]1CCC1=CC(=O)CC[C@]12C	0%[8 µM]	>57
CCS(=O)(=O)n1nc(NCc2cccc(OC)c2)nc1NCc1cccc(OC)c1	-15%	>57
COc1ccc(N2C(=O)CC(N3CCN(c4nc5ccccc5s4)CC3)C2=O)cc1 (stereo not given)	-2%	>57
Cc1nnc(SCC(=O)NCc2ccccc2)s1	0%	>57
CCCc1nnc(NC(=O)CN2C(=O)c3ccccc3S2(=O)=O)s1	-3%	>57
COc1cc(NC(=O)C2CCCN2S(=O)(=O)c2ccc3c(c2)CCC(=O)N3)cc(OC)c1 (stereo not given)	-12%	>57
O=C1Nc2ccc(S(=O)(=O)N3CCCC3C(=O)O)c3cccc1c23 (stereo not given)	-16%	>57
CN(C)c1nc(Oc2ccc(=O)n(C)n2)nc(N2CCOCC2)n1	·	>57
CCC(Sc1nc(=O)cc(N)n1CCc1ccccc1)C(=O)Nc1cc(C)on1 (stereo not given)	18%	>57
CC(=O)Nc1ccc2c(c1)/C(=C/c1ccc([N+](C)(C)C)cc1)c1ccccc1-2	?	?
CC(C)c1cccc2c([Si](C)(C)C)c3c(nc12)-c1cccc(=O)n1C3	?	>57
CCOC(=O)c1ccc(NC(=O)CSc2nnc(COc3ccccc3OC)n2C)cc1	-6%	>57
CCOC(=O)C1CCN(c2ncnc3c2oc2ccccc23)CC1	4%	>57
Cc1cc(C)n(CCCNC(=O)c2ccc(S(=O)(=O)NCc3ccco3)cc2)n1	8%	>57
O=C(CNC(=O)c1ccc(Br)o1)Nc1cccc(-c2cnc3ccccc3n2)c1	?	>57
Cn1c(C(=O)N2CCC3(CC2)OCCO3)cc2c(=O)n(C)c3ccccc3c21	?	>57
O=c1c(-c2ccc(Cl)cc2)nc2cnc(N3CCOCC3)nc2n1C[C@H]1CCCO1	?	>57
CCOC(=O)c1cnc(SC2CC(=O)N(c3ccc(OC)c(OC)c3)C2=O)nc1N (stereo not given)	20%	>57
Cc1ccc2cccc(SCC(=O)NCc3ccco3)c2n1	?	>57
C=CCn1c(SCC(=O)Nc2cc(C)nn2-c2ccccc2)nnc1C1CCCCC1	-11%	>57
CC1CCCCC1NC(=O)COC(=O)c1ccc(S(=O)(=O)N2CCOCC2)cc1 (stereo not given)	?	>57
COc1ccc(N2CCN(Cc3nc(N)nc(N4CCCc5ccccc54)n3)CC2)cc1	-5%	>57
COc1cc(OC)c(NC(=O)CCNC(=O)Cn2cnc3ccccc3c2=O)cc1Cl	-5%	>57
CCn1c(SCC(=O)NCCc2ccc(F)cc2)nnc1-c1cccs1	0%	>57
O=S(=O)(c1ccc2c(c1)oc1ccccc12)N1CCOCC1	-4%	>57
CCNc1ncc2nc(CCc3ccccc3)c(=O)n(-c3ccccc3)c2n1	?	>57
Cc1ccc(Cn2ccc(NC(=O)c3cc(-c4ccccc4)on3)n2)cc1	-13%	>57
Cc1ccc2[nH]c(=O)c(CN(CCN3CCOCC3)C(=O)Nc3ccc(F)cc3)cc2c1	-1%	>57
COc1ccc(N2CCN(C(=O)CSc3nnc4ncccn34)CC2)cc1	10%	>57
COCCn1c(=O)c(-c2cc(F)cc(F)c2)nc2cnc(N3CCN(C)CC3)nc21	?	>57
CC(/C=C/c1ccccc1)=N/O	16%	·
CC1CN(c2nc3c(c(=O)n(Cc4ccc(Cl)c(Cl)c4)c(=O)n3C)n2C)CC(C)O1 (stereo not given)	?	>57
Nc1nc(-c2ccc(Br)cc2)cs1	-26%	>57
COc1ccc(CCNC(=O)CN2C(=O)c3ccccc3S2(=O)=O)cc1OC	14%	>57
Cc1ccc(CN2CCN(CC(=O)N3CCC(C(N)=O)CC3)C2=O)cc1	-2%	>57
NC(=O)CSc1nnc(-c2ccncc2)n1-c1ccc(Cl)cc1	9%	>57
CCn1c(SCC(=O)Nc2oc(-c3ccccc3)c(-c3ccccc3)c2C#N)nnc1-c1ccco1	?	>57
CS(=O)(=O)N(CC(=O)O)Cc1ccccc1	2%[8 µM]	>57
c1ccc2ccccc2c1	-8%	·
COC(=O)C1C(c2ccccc2)C2C(=O)c3c(OC)cc(OC)cc3O[C@@]12c1ccc(OC)cc1 (stereo not given in full)	-11%[8 µM]	·
CCOc1ccc(NC(=O)N2CCN(CC)CC2)cc1	2%	>57

Next section.
Under each structure – LT uptake inh | Prx2 Sm inh
- Cc1cc(C)n2nc(NCc3ccccc3)nc2n1
    11% | >57
- Clc1cccc(Cl)c1-c1nnc2ccc(N3CCOCC3)nn12
    -18% | >57
- Cn1c(SCc2nc3ccccc3[nH]2)nnc1-c1cnccn1
    -15% | >57
- CC(=O)c1cc2c(cc1NC(=O)C1CC=CCC1C(=O)O)OCO2 (stereo not given)
    -28% | >57
- C=CCn1c(Cc2c[nH]c3ccccc23)n[nH]c1=S
    ? | >57
- COc1ccc(-c2nc3cnc(N4CCN(C)CC4)nc3n(CCc3ccccc3)c2=O)cc1
    ? | >57
- NC(=O)CSc1nnc(Cn2c(=O)sc3ccccc32)n1-c1cccc(Cl)c1
    10% | >57
- CC(C)Oc1snc(Cl)c1C(N)=O
    1% | >57
- O=c1c2cnn(-c3ccccc3)c2ncn1Cc1ccccc1F
    3% | >57
- COc1ccc(S(=O)(=O)NC(CC(=O)NC2CCCC2)c2ccco2)cc1 (stereo not given)
    -3% | >57
- COc1cccc(C2c3c(oc4ccccc4c3=O)C(=O)N2c2ccccn2)c1 (stereo not given)
    -17% | >57
- Cn1cnnc1SCc1ccccc1Br
    8% | >57
- CCOC(=O)CSc1nc2c(c(=O)n(C)c(=O)n2C)n1Cc1ccccc1F
    17% | >57
- COCCNC(=O)C(c1ccco1)N(Cc1ccc(OC)cc1)C(=O)Cn1nnc2ccccc21 (stereo not given)
    2% | >57
- S=c1[nH]nc(Cc2c[nH]c3ccccc23)o1
    -6% | >57
- COc1ccccc1NC(=O)C1CCN(c2ncccn2)CC1
    1% | >57
- Cc1ccc(C)c(S(=O)(=O)Nc2ccc(O)cc2)c1
    19% | ·
- Cc1ccc(-n2ncc(C#N)c2/N=C/N2CCN(C)CC2)cc1
    -2% | >57
- CCC(=O)N1CCc2cc(S(=O)(=O)NCCC(=O)NC3CCCc4ccccc43)ccc21 (stereo not given)
    -11% | >57
- CCOC(=O)C[C@@H](C(=O)OCC)[C@@H]1CCCCC1=O
    -13%[8 µM] | ·

Structures from the list above that contain a Cl atom (9):
Under each structure – LT uptake inh | Prx2 Sm inh
- Oc1ccc(C(=S)N2CCCCC2)cc1Cl
    1% | >57
- CCOC(=O)N1CCN(S(=O)(=O)c2cc(OCC(N)=O)c(C)cc2Cl)CC1
    17% | >57
- O=c1c(-c2ccc(Cl)cc2)nc2cnc(N3CCOCC3)nc2n1C[C@H]1CCCO1
    ? | >57
- COc1cc(OC)c(NC(=O)CCNC(=O)Cn2cnc3ccccc3c2=O)cc1Cl
    -5% | >57
- CC1CN(c2nc3c(c(=O)n(Cc4ccc(Cl)c(Cl)c4)c(=O)n3C)n2C)CC(C)O1 (stereo not given)
    ? | >57
- NC(=O)CSc1nnc(-c2ccncc2)n1-c1ccc(Cl)cc1
    9% | >57
- Clc1cccc(Cl)c1-c1nnc2ccc(N3CCOCC3)nn12
    -18% | >57
- NC(=O)CSc1nnc(Cn2c(=O)sc3ccccc32)n1-c1cccc(Cl)c1
    10% | >57
- CC(C)Oc1snc(Cl)c1C(N)=O
    1% | >57

An excerpt of these results, as labelled records.
mol: Cc1ccc(C)c(S(=O)(=O)Nc2ccc(O)cc2)c1
  LT uptake inh: 19%
  Prx2 Sm inh: ·

mol: Cc1ccc(-n2ncc(C#N)c2/N=C/N2CCN(C)CC2)cc1
  LT uptake inh: -2%
  Prx2 Sm inh: >57

mol: CCC(=O)N1CCc2cc(S(=O)(=O)NCCC(=O)NC3CCCc4ccccc43)ccc21 (stereo not given)
  LT uptake inh: -11%
  Prx2 Sm inh: >57

Later entries.
Under each structure – LT uptake inh | Prx2 Sm inh
- CCOC(=O)N1CCN(Cc2nc(-c3ccc(OC)cc3)no2)CC1
    -11% | >57
- Cc1c(N=Cc2ccc[nH]2)c(=O)n(-c2ccccc2)n1C
    9% | >57
- CC(C)C(=O)Nc1ccc(NC(=O)c2ccccn2)cn1
    6% | >57
- CN(C(=O)COC(=O)C1c2ccccc2Oc2ccccc21)C1CCS(=O)(=O)C1 (stereo not given)
    -1% | >57
- O=S(=O)(c1ccccc1)c1nc(-c2ccco2)oc1N1CCCCCC1
    -18% | >57
- COc1ccc(Nc2ccnc3ccccc23)cc1
    -17% | >57
- CCOC(=O)c1cccc(NS(=O)(=O)c2cnc[nH]2)c1
    -7% | >57
- Cc1ccc2nsnc2c1NS(=O)(=O)c1c(C)ccc2nsnc12
    -22% | >57
- COc1ncc2nc(C)c(=O)n(CCc3ccccc3)c2n1
    -14% | >57
- CC1CCCCC1NC(=O)CCn1c(=O)oc2ccccc21 (stereo not given)
    4% | ·
- CC(Sc1ccc2c(c1)OCCO2)C(=O)Nc1ccc2c(c1)OCO2 (stereo not given)
    -18% | >57
- O=C(CN1CCN(Cc2ccccc2)C1=O)NCc1ccc(Cl)cc1
    -4% | >57
- CCCN1C(=O)c2cc(C(=O)NCCc3cccc(C)c3)ccc2C1O (stereo not given)
    ? | >57
- Cn1nc(CC(=O)Nc2cccc3ncccc23)c2ccccc2c1=O
    -14% | >57
- Cc1cccc(CSc2nncc(=O)[nH]2)c1
    -13% | >57
- CCOC(=O)c1ccc(N2C(=O)c3n[nH]c(C)c3C2c2ccco2)cc1 (stereo not given)
    -12% | >57
- Nc1cc(-c2ccc(Br)cc2)[nH]n1
    -21% | ·
- C=CCn1c(COc2cccc3ccc(C)nc23)nnc1SCC(=O)O
    -1% | >57
- CSCCC1NC2(C(=O)Nc3c(C)cc(Cl)cc32)[C@@H]2C(=O)N(C3CCCC3)C(=O)[C@H]12 (stereo not given in full)
    ? | >57
- CC(=O)c1cccc(NC(=O)CCNS(=O)(=O)c2cccc(C(C)=O)c2)c1
    0% | >57
- c1ccc2c(SCc3cn4cccnc4n3)ncnc2c1
    15% | >57
- COc1cccc(C(=O)N(Cc2cc3cc(C)ccc3[nH]c2=O)C(C)C)c1
    -3% | ?
- O=C(CSc1nnc(Cc2ccccc2)o1)NCCN1C(=O)CSC1=O
    -7% | >57
- COc1ccc(-n2c(=O)c3ccccc3n(CC(=O)NC3CCCCC3)c2=O)c(OC)c1
    10% | >57
- O=C(NC1CCSC1=O)c1ccc(Cl)cc1 (stereo not given)
    -5% | >57
- COC(=O)C(O)(NC(=O)OCc1ccccc1)C(F)(F)F (stereo not given)
    13% | >57
- CN(C)S(=O)(=O)c1ccc(C(=O)NCc2ccccc2)cc1
    -5% | >57
- O=C(O)CSC1CC(=O)N(c2cccc(Cl)c2)C1=O (stereo not given)
    -9% | >57
- CCOc1ccccc1NC(=O)NC1CC2CCCC(C1)N2Cc1nnnn1CCc1ccccc1 (stereo not given)
    -3% | >57
- CCOC(=O)Cn1c(CN2CCc3ccccc3C2)nc2c1c(=O)n(C)c(=O)n2C
    27% | >57
- CCOC(=O)c1ccc(N=c2sc(C(=O)OC)cc(=O)n2C2CC2)cc1
    -11% | >57
- CSCC[C@H](NC(=O)NCCc1ccc(F)cc1)C(=O)O
    6% | >57
- C=CCNc1ccc(F)c(F)c1N1CCCCCC1=O
    -1% | >57
- c1ccc(-c2ccc(-c3nc(-c4cccnc4)no3)cc2)cc1
    -18% | ·
